Compound activity deposited in PubChem BioAssay by National Center for Advancing Translational Sciences (NCATS).
CtBP-E1A inh: qHTS Assay for Inhibitors of the CtBP/E1A Interaction | CtBP / adenovirus E1A interaction (AlphaScreen) | AlphaScreen GST-E1A/His-CtBP binding, 1536-well; hits give low values; control for the full effect not named in the record | activity change, % (test concentration not listed) | actives 0.49% (n = 340,000); in the data active means activity change below about -65%; inconclusive means about -30% to -65%; inactive means above about -30%; also: % is scaled to controls: 0 for no effect and ±100 for the full control effect; compound concentration not given in the record
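Steps: dispense buffer (Tris pH 8.0, NaCl 300 mM, TCEP 1 mM, BSA, Tween 20); add 5X protein mix (GST-E1A, His-CtBP, 125 nM each); pin 23 nL compound; 2 h at 37 °C, dark; add 5X beads (50 ug/mL); 1 h; read.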
TRPML1 ag: qHTS for Agonists of the Human Mucolipin Transient Receptor Potential 1 (TRPML1). Mucolipin-1 (Homo sapiens), Q9GZU1. TRPML1-expressing cells, Ca2+ dye fluorescence, FDSS; host cell line not named in the record; reference of the full effect not given here. activation, % (concentration not given with the values). actives 0.12% (n = 410,000); in the data active = activation above about 50%; inconclusive = about 30% to 50%; inactive = below about 30%; also: 0% is about no effect; the text of the record puts the active cut at 80%
Target sequence (Q9GZU1 whole entry, looked up): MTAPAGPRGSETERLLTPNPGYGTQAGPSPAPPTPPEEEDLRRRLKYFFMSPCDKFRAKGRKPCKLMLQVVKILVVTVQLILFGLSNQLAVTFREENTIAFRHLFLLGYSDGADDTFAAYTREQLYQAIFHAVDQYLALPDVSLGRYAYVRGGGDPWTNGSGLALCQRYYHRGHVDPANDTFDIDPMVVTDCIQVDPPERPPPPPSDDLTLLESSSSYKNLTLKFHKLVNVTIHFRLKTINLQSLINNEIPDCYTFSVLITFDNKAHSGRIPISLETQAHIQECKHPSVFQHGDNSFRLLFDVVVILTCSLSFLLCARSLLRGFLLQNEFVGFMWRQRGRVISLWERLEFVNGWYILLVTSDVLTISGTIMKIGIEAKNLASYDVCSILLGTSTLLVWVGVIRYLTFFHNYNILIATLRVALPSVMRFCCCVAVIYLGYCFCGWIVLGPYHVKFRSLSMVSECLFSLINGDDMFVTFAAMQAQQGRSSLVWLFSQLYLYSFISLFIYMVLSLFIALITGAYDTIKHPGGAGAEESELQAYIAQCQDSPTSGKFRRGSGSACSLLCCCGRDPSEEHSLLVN
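Tetracycline-induced TRPML1-DL cells are seeded and incubated overnight before loading with a no-wash Ca2+ dye and quencher. Agonist activity is taken from the 110 s fluorescence read following compound pin-transfer on an FDSS, before EC80 54-4 challenge.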
D2 PAM: Beta-Arrestin HTS for Positive Allosteric Modulators of the Human D2 Dopamine Receptor: Potentiators. D(2) dopamine receptor (Homo sapiens), P14416. DiscoveRx D2 beta-arrestin cells, luminescence, 90 min; 100% = 57 uM dopamine signal. potentiation, % (test concentration not listed). actives 0.23% (n = 360,000); active = potentiation of 50% or more; inconclusive = 30% to 50%; inactive = 30% or less;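 also: compound concentration not given in the record; tested on top of an EC20 dose of dopamine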
Target sequence (P14416 whole entry, looked up): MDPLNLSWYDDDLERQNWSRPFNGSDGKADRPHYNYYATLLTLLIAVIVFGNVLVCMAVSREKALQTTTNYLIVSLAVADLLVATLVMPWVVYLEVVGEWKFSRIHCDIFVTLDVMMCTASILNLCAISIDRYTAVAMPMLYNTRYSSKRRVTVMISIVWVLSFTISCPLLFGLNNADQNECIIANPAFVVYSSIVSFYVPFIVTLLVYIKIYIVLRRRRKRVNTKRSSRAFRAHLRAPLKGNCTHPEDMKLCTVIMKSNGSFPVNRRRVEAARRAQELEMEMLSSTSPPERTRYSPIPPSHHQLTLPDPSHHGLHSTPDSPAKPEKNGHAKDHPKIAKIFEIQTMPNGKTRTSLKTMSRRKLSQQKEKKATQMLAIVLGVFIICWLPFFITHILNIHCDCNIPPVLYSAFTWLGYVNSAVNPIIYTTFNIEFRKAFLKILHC
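PathHunter D2 cells, attached overnight at 37 deg C, received compound in DMSO plus dopamine at EC20 (50 nM final) for 90 min at 37 deg C. Beta-arrestin recruitment was read as luminescence after 1 h with detection reagent at ambient temperature.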
TRPV1 PAM: HTS Assay for Compounds that Act as Potentiators of the Vanilloid Receptor 1 | Transient receptor potential cation channel subfamily V member 1 (Homo sapiens), Q8NER1 | actives 0.02% (n = 320,000) | TRPV1-expressing cells, Fluo-8 calcium influx, capsaicin EC20 potentiation; host cell line not named in the record; control for the full effect not named in the record | potentiation, % at 8.33 µM; active means potentiation above 80%; inconclusive means 30% to 80%; inactive means below 30%; also: 0% is about no effect
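Fluo-8 calcium influx in TRPV1-expressing cells, kinetic read (ex 480/em 520 nm). Compound added and read 3 min for agonist activity, followed by capsaicin at EC20 final and 2 min further read for enhancement.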
TRPML1 inh: qHTS for Inhibitors of the Human Mucolipin Transient Receptor Potential 1 (TRPML1). Mucolipin-1 (Homo sapiens), Q9GZU1. TRPML1-inducible cells, Ca2+ dye fluorescence, FDSS; hits give low values; inhibition of EC80 agonist-evoked calcium signal. activity change, negative = inhibition, % (test concentration not listed). actives 0.02% (n = 390,000). AID 624415, 2012; in the data active means activity change below about -50%; inconclusive means about -30% to -50%; inactive means above about -30%;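 also: stimulus is agonist 54-4 at its EC80 concentration; % is scaled to controls: 0 for no effect and ±100 for the full control effect; compound concentration not given in the record; the text of the record puts the active cut at -80%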
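Tet-induced TRPML1-DL cells loaded with Ca8 no-wash calcium dye were read kinetically on FDSS. Compound addition was followed by EC80 agonist 54-4 (4 uM final); inhibition was read over 110 s.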
Six1-Eya2 inh: qHTS Assay for Inhibitors of the Six1/Eya2 Interaction; Homeobox protein SIX1 (Homo sapiens) + Protein phosphatase EYA2 (Homo sapiens), …; AlphaScreen GST-Six1/His-Eya2 binding, biochemical; hits give low values; control for the full effect not named in the record; activity change, % (concentration not given with the values); actives 0.56% (n = 360,000); AID 651725, 2012; in the data active = activity change below about -65%; inconclusive = about -30% to -65%; inactive = above about -30%; also: % is scaled to controls: 0 for no effect and ±100 for the full control effect
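AlphaScreen luminescence read after one hour at 37 °C in darkness. Pin-transferred compounds met GST-Six1 and His-Eya2 protein (5X stock 250 nM/500 nM) plus glutathione donor and Ni-chelate acceptor beads (5X, 50 ug/mL).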
* marks the source's active call; other numbers are inactive results; ? = inconclusive; / = not tested or not shown; & = joins results of further samples. Rows are unselected. Share with any hit: about 0.95%.

structure,CtBP-E1A inh,TRPML1 ag,D2 PAM,TRPV1 PAM,TRPML1 inh,Six1-Eya2 inh
Cc1ccc(SCc2ccc(C(=O)NCc3cccnc3)cc2)cc1,8,0.0,-8,-6,41,-3
COc1cccc(OCC(O)CN2CCC(C)CC2)c1 (centres undefined),0,0.3,-45,2,6,2
COc1ccc(C2CC(c3ccccc3)=NN2c2ccc(N)cc2)cc1 (centres undefined),-11,-0.3,?,7,2,-7
CC1=C(C(=O)N2CCOCC2)C(c2ccsc2)C2=C(CCCC2=O)N1 (centres undefined),9,0.4,5,-5,-10,7
CCOC(=O)N1CCN(C(=O)COC(=O)c2cc(Cl)cc(Cl)c2)CC1,9,-0.4,-7,/,-5,1
COCCN(Cc1cc2cccc(C)c2[nH]c1=O)C(=O)c1ccccc1,-6,0.9,-2,3,11,5
O=C(CSc1nc(=O)n2ccccc2n1)NC1CCCCC1,11,0.5,-5,-12,0,-2
Cc1cccc(N(CC(=O)NCC2CCCO2)C(=O)CCC(=O)Nc2cc(C)on2)c1 (centres undefined),0,3.3,-4,-34,23,7
CCc1ncc(CN2CCCCC2C(=O)Nc2ccc(Oc3ccccc3)nc2)cn1 (centres undefined),-1,0.0,-8,5,-3,-7
CCN(CC)S(=O)(=O)c1ccc(C(=O)NCc2ccc3c(c2)OCO3)cc1,-4,1.3,-1,0,-7,6
Nc1nnc(SCC(=O)Nc2nccs2)s1,-2,0.8,1,20,24,-2
CCOC(=O)NN1C(=O)c2ccccc2NC1c1ccc(OC)cc1OC (centres undefined),-12,1.1,-9,-3,-21,4
OC(c1ccccc1)c1nc(-c2ccc(Cl)cc2)cs1 (centres undefined),9,0.3,1,/,/,9
CC(NC(=O)[C@H](C)NC(=O)[C@@H]1CSC2c3ccccc3C(=O)N21)c1ccccc1 (some centres undefined),4,-0.6,1,-11,-7,3
Cc1nnc(NC(=O)CSc2nnc3c(n2)[nH]c2ccc(Br)cc23)s1,0,0.1,5,24,3,-13
O=C1c2ccccc2C(Nc2cccnc2)N1Cc1ccccc1 (centres undefined),3,-0.3,-2,26,13,0
c1ccc(-c2cnn3nnnc3n2)cc1,3,-0.1,25,-1,37,-3
C=CCSC1=NN2CCS(=O)(=O)N=C2S1,6,0.8,1,-12,0,8
COc1ccc(N2Cc3cccc(C(=O)NC(C)CCc4ccco4)c3C2=O)cc1 (centres undefined),1,1.1,6,/,9,-8
CC1CC(=O)Nc2ccccc2N1S(=O)(=O)c1cccs1 (centres undefined),6,0.0,-4,6,-1,3
COc1ccc(Nc2ncnc3c2cnn3-c2cccc(C)c2)cc1OC,2,-0.9,0,-8,3,2
CCNc1nc(SC(C(C)=O)C(C)=O)nc(N(C)C)n1,5,-1.2,-10,-9,-10,5
CCOC(=O)Cc1csc(NC(=O)CCNS(=O)(=O)c2ccc3c(c2)CCC(=O)N3)n1,1,0.2,-12,-13,-4,-1
CCc1cccc(CC)c1NC(=O)c1ccc(-n2cncn2)nc1,/,0.2,-15,15,-16,6
CCCCn1c(N)c(N(CC(C)C)C(=O)c2ccc(OCc3c(C)noc3C)cc2)c(=O)[nH]c1=O,3,-0.4,-12,-9,-1,0

4 entries already listed, ordered by length of the SMILES, low to high:
structure,CtBP-E1A inh,TRPML1 ag,D2 PAM,TRPV1 PAM,TRPML1 inh,Six1-Eya2 inh
CC1CC(=O)Nc2ccccc2N1S(=O)(=O)c1cccs1 (centres undefined),6,0.0,-4,6,-1,3
CCc1cccc(CC)c1NC(=O)c1ccc(-n2cncn2)nc1,/,0.2,-15,15,-16,6
CC1=C(C(=O)N2CCOCC2)C(c2ccsc2)C2=C(CCCC2=O)N1 (centres undefined),9,0.4,5,-5,-10,7
CCOC(=O)Cc1csc(NC(=O)CCNS(=O)(=O)c2ccc3c(c2)CCC(=O)N3)n1,1,0.2,-12,-13,-4,-1

The listing continues:
structure,CtBP-E1A inh,TRPML1 ag,D2 PAM,TRPV1 PAM,TRPML1 inh,Six1-Eya2 inh
CC(=O)c1ccc(NC(=O)c2ccc(CNc3c(N4CCOCC4)c(=O)c3=O)cc2)cc1,3,0.3,-6,-37,29,4
CCN1C(=O)[C@@H]2[C@@H](c3ccc(-c4ccc(F)cc4)c(OC)c3)N3CCCC[C@@]3(C(=O)OC)[C@@H]2C1=O,-7,0.2,-16,8,43,-8
COc1ccc(-c2cn(/N=C/c3ccc(Cl)cc3Cl)c(N)n2)cc1,-5,0.5,-12,10,18,-11
CCOC(=O)C1CCCN(S(=O)(=O)c2ccc3c(c2)C(C)(C)C(=O)N3C)C1 (centres undefined),4,-0.3,-8,-5,-7,7
Cc1ccc(O)c(NC(=O)C2CC(c3c(F)cccc3Cl)=NO2)c1 (centres undefined),1,-0.1,19,25,1,-6
CC(=O)N1c2ccc(S(=O)(=O)N3CCC(C(=O)Nc4cccc(C(F)(F)F)c4)CC3)cc2CC1C (centres undefined),0,2.8,-36,-3,31,-4
CCCCN(CC)Cc1ccc(CNC(=O)Nc2ccc(F)cc2)o1,0,3.4,-11,5,13,-3
CC(C)(C)c1cc(NC(=O)c2ccco2)n(-c2ccccc2)n1,4,-1.0,-2,-6,3,12
Cc1noc(C)c1C(=O)OCC(=O)Nc1cc(Cl)ccc1Oc1ccccc1,11,3.8,1,-2,78,9
Cc1ccc(NS(=O)(=O)c2ccc3c(c2)oc(=O)n3C)cc1C,3,-1.4,-1,-11,15,2
O=C(NC1CCCC1)C1CCCN1C(=O)Nc1ccccc1Cl (centres undefined),7,0.0,2,-2,-2,10
Cc1nn(CC(=O)N(C)C2CCS(=O)(=O)C2)c(C)c1S(=O)(=O)N(C)C (centres undefined),7,-0.7,-1,-7,10,3
CC(C)CNC(=O)C(=O)Nc1ccc(N(C)C)cc1,6,0.1,-2,-5,8,-2
Cc1onc(-c2ccccc2Cl)c1C(=O)OCC(=O)Nc1cccc(S(=O)(=O)N(C)C)c1,10,-0.3,-18,-6,-7,0
Cn1c(SCC(=O)NC2CC2)nnc1-c1ccc(Cl)cc1,/,-0.3,-13,10,1,7
COC(=O)[C@H](CCSC)NC(=O)c1cccnc1SC,/,1.4,9,-1,?,1
COc1ccc(C/C(N)=N/OC(=O)c2cccs2)cc1,13,-0.3,10,-3,-6,3
CCOC(=O)c1cc(NC(=O)OC)c(C)nc1C,11,-0.9,7,1,25,1
Cc1ccc(S(=O)(=O)NCCc2nnc3ccc(SCC(=O)Nc4nc(C)cs4)nn23)cc1,3,1.2,-7,9,48,10
COc1ccc(S(=O)(=O)N2CCN(CCc3ccccc3)CC2)c(OC)c1,-13,-0.3,-20,5,-12,-1
CC(=O)N/C(=C\c1ccccc1)C(=O)OCC(=O)N1CCCCCC1,-21,0.4,-7,-2,1,-7
Brc1ccc(NC(c2ccccc2)c2ccncc2)cc1 (centres undefined),/,3.1,-10,-9,1,8
CC[C@]1(C(=O)OC)[C@H]2C(=O)N(C)C(=O)[C@H]2[C@H]2CN=C(SCC3CC3)N21,9,-0.1,/,/,3,5
O=C(CN1CCOCC1)Nc1ccccc1Sc1ccccc1,4,-0.7,2,-3,-1,6
CCCCCCN1C[C@@H](n2cc(COC(=O)c3ccccc3)nn2)[C@H](O)C[C@@H]1c1ccc(OC)cc1,-2,0.7,-6,/,23,-9
Cc1cccc(/C=C2/Sc3ccc(C(=O)NCCN4CCCC4)cc3NC2=O)c1,/,0.7,-5,1,-15,-12
CC(C)(C)NC(=O)NC(=O)CN1CCN(S(=O)(=O)c2ccc3c(c2)CCCC3)CC1,2,1.0,-10,3,24,-8
O=C(NCCC1=CCCCC1)C1CCN(S(=O)(=O)c2ccc(-n3cnnn3)cc2)CC1,-3,0.3,5,1,0,6
O=C(CCl)NC(Cc1c[nH]c2ccc(OCc3ccccc3)cc12)C(=O)O (centres undefined),/,-0.8,-1,-2,4,7
CCc1noc(C)c1C(=O)OC(C)C(=O)Nc1ccc2c(c1)OCO2 (centres undefined),1,-0.5,4,12,-3,-2
CCOC(=O)c1c(NC(=S)Nc2ccc(OCC)cc2)sc2c1CCN(C)C2,-15,1.3,-25,16,-18,-11
Cc1cccc(N(C(=O)CNC(=O)c2ccco2)C(C(=O)NCC2CCCO2)c2ccccc2)c1 (centres undefined),1,-0.7,8,-11,-9,-6
CC1=NN(c2ccccc2)C(=O)C1C(=O)C(=O)Nc1ccc(F)cc1 (centres undefined),-6,0.1,-22,13,-1,0
CN(Cc1ccc2nsnc2c1)Cc1nc(Cc2cccc(F)c2)no1,24,/,4,-15,/,12
CC(C)Oc1ccccc1OCCCCn1cnc2ccccc2c1=O,/,0.1,-6,8,2,3
COc1cc(C(=O)Oc2cccc(/C=N/NC(=O)c3cccnc3)c2)cc(OC)c1OC,-2,-0.2,13,14,-5,3
CC1(C)CC2CC(C)(CN2C(=O)c2ccc([N+](=O)[O-])cc2[N+](=O)[O-])C1 (centres undefined),-6,-0.3,2,2,-10,-4
CCN(C(=O)COC(=O)c1ccccc1Cc1ccccc1)C1CCS(=O)(=O)C1 (centres undefined),-2,1.0,-14,-6,-22,0
O=C1c2ccccc2C(=O)N1CC(=O)N1c2ccccc2Sc2ccc(C(F)(F)F)cc21,7,0.8,1,-2,3,14
Cc1cc(C(=O)Nc2nnc(C(F)(F)F)s2)cs1,5,1.0,0,-8,13,-1
O=C(CN(c1ccc2c(c1)OCCO2)S(=O)(=O)c1ccccc1)N1CCN(Cc2ccccc2)CC1,0,-0.4,-11,-4,27,-1
CCOC(=O)C1CCCN(C(=O)Cn2ncc3c([nH]c4ccccc43)c2=O)C1 (centres undefined),10,0.7&4.3,-4,3,-20&26,3
CC(C)CCNC(=S)Nc1ccccn1,-9,-0.6,-5,-12,9,-22
COCCCn1c(=O)c2sccc2n2c(CCCC(=O)N3CCN(c4ccccn4)CC3)nnc12,1,1.4,1,16,14,0
COc1cc(C(=O)O)c([N+](=O)[O-])c(OC)c1OC,11,5.2,-1,-8,-2,4
Cc1sc2nc(CSCC(=O)NC3(C#N)CCCCC3)[nH]c(=O)c2c1C,-22,0.2,-1,6,2,-29
Oc1c(Br)cc(Br)cc1C=Nc1cccc2ncccc12,/,-0.1,-25,/,-3,-15
CCOC(=O)c1nnn(CC(=O)NC(=O)Nc2ccc(F)cc2)c1C(=O)OCC,/,0.6&0.0,-3,?,1&-10,?
